NS1 function inh: influenza NS1 inhibition; S. cerevisiae slowed by influenza A NS1, growth recovery by OD600; Potency, µM (titrated, usually from 46.1 µM), without a hit: at the top dose activity, positive = more growth; actives 0.4% (n = 270,000); AID 2326; active means well fitted rising curve with a large enough effect; inconclusive means small, poorly fitted or top-dose-only effect; inactive means no such curve, though single readings can be large or run the other way; note: nearly all actives have a fitted effect of over 50% in size
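Growth recovery, yeast-based: influenza A NS1 expressed in S. cerevisiae causes slow growth, and suppressors are detected by OD600. The parent strain without NS1 is used as positive control.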
LASV entry inh: Lassa virus entry inhibition; Lassa virus pseudotype entry inhibition, cell reporter; control for the full effect not named in the record; Potency, µM (series often up to 37.9 µM), inactives show at the top dose activity change, negative = inhibition, usual class: inhibitors; actives 1.2% (n = 300,000); AID 540256; active means well fitted inhibition curve with a large enough effect; inconclusive means small, poorly fitted or top-dose-only effect, or effect the other way; inactive means flat fitted curve, though single readings scatter; tested in HEK293 cells; note: % is set by controls: 0 for no effect and ±100 for the full control effect; nearly all actives have a fitted effect of over 50% in size; luciferase read-out
RE007 growth inh: less growth of the S. pombe RE007 Vpr strain; S. pombe RE007 Vpr strain, BacTiter-Glo ATP luminescence, 24 h; control for the full effect not named in the record; Potency, µM (doses to about 92.2 µM), without a hit: at the top dose activity change, negative = less growth; actives 0.21% (n = 360,000); AID 651644; active = well fitted falling curve with a large enough effect; inconclusive = small, poorly fitted or top-dose-only effect; inactive = no such curve, though single readings can be large or run the other way;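 note: % is set by controls: 0 for no effect and ±100 for the full control effect; nearly all actives have a fitted effect of over 50% in size; the assay follows cell death caused by Vpr and the record does not say whether a fall means rescue or toxicity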
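Fission yeast RE007 carrying one integrated HIV-1 vpr copy, seeded at OD 0.01 in PMG+AL medium with 23 nL pinned compound. Grown 24 h at 30 degrees; viability read by BacTiter-Glo luminescence after 5 min.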
SARS PLpro yeast: blocks SARS-CoV papain-like protease in a yeast assay; S. cerevisiae expressing SARS-CoV PLpro, growth rescue; control for the full effect not named in the record; Potency, µM (series often up to 32.9 µM), without a hit: at the top dose activity, positive = growth rescue; actives 0.19% (n = 330,000); active means well fitted rising curve with a large enough effect; inconclusive means small, poorly fitted or top-dose-only effect; inactive means no such curve, though single readings can be large or run the other way; note: 0% is about no effect; nearly all actives have a fitted effect of over 55% in size; growth read by luminescence after 48 h
2A StopGo: lowers the luciferase signal of an FMDV 2A StopGo reporter; actives 1.2% (n = 410,000); human cells with a luciferase reporter of 2A StopGo recoding; control for the full effect not named in the record; AID 1159524; Potency, µM (top dose mostly 57.9 µM), for inactives: at the highest dose signal change, negative = less light; active = well fitted falling curve with a large enough effect; inconclusive = small, poorly fitted or top-dose-only effect; inactive = no such curve, though single readings can be large or run the other way; tested in HEK293T cells; note: % is set by controls: 0 for no effect and ±100 for the full control effect; nearly all actives have a fitted effect of over 45% in size; luciferase light after 4 h
Cruzain inh Det: cruzain (T. cruzi) inhibition with detergent; P25779; purified cruzain, Z-FR-AMC fluorescence, 0.01% Triton; Potency, µM, inactives show max response, negative = inhibition, hits mostly inhibitors; actives 0.43% (n = 200,000); AID 1478;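 note: plate controls were neutral wells for no effect and buffer without enzyme for full effect; nearly all actives have a fitted effect of over 40% in size; top concentration of the series not given in the record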
Target sequence (P25779 123-467 limits assumed): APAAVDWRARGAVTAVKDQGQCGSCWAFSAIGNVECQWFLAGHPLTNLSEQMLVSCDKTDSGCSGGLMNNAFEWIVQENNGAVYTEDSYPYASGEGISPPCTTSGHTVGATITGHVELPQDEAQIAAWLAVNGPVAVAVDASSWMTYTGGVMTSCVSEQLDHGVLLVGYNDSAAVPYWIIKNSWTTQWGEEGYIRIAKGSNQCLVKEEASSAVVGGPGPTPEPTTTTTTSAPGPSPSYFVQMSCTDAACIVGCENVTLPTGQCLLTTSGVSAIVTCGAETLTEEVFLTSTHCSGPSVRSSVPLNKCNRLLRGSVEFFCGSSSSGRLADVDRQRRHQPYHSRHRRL
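Cysteine protease activity tested under reducing, mildly acidic conditions (100 mM sodium acetate pH 5.5, 5 mM DTT) plus 0.01% Triton X-100. Cruzain 1.5 nM; substrate Z-FR-AMC 2 uM; 15 min compound preincubation at room temperature.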
MARV entry inh: blocks Marburg virus binding to or entry into cells; Marburg virus pseudotyped entry inhibition, cell reporter; control for the full effect not named in the record; about a third of the inactives were read at about 46 µM; actives 1.8% (n = 300,000); Potency, µM (titrated, usually from 37.8 µM), for the others: top-dose activity change, negative = inhibition, hits mostly inhibitors; AID 540276; active = well fitted inhibition curve with a large enough effect; inconclusive = small, poorly fitted or top-dose-only effect, or effect the other way; inactive = flat fitted curve, though single readings scatter; tested in HEK293 cells; about a fifth of its hits are not listed in these tables; note: % is set by controls: 0 for no effect and ±100 for the full control effect; luciferase read-out
Cruzain inh noDet: inhibitors of Trypanosoma cruzi cruzain without detergent | purified cruzain, Z-FR-AMC fluorescence, no detergent | Potency, µM, without a hit: max response, negative = inhibition, usual class: inhibitors | actives 2.3% (n = 200,000);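 note: plate controls were enzyme without inhibitor for no effect and buffer without enzyme for full effect; nearly all actives have a fitted effect of over 40% in size; top concentration of the series not given in the record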
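Detergent-free condition (0.00005% Triton X-100) in acetate buffer pH 5.5 with DTT. 1.5 nM enzyme and compound were pre-mixed 15 min, then 2 uM Z-FR-AMC substrate added; reaction progress from fluorescence change between first and third reads (60 s).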
Numbers without * were called inactive; ? = inconclusive; / = no result given; & = joins results of further samples; [ ] = another dose, or the depositor's remark. Unless noted, calls come from the whole dose curve; as a rule, active = well fitted curve in the direction sought with a large enough effect; inconclusive = small, poorly fitted or top-dose-only effect, or another doubt; inactive = no such curve, though single readings can be large; an effect the other way counts as inactive or inconclusive. Potency is the fitted concentration of half-maximal effect.

SMILES	NS1 function inh	LASV entry inh	RE007 growth inh	SARS PLpro yeast	2A StopGo	Cruzain inh Det	MARV entry inh	Cruzain inh noDet
CCOc1ccccc1C(=O)NCc1nc2cccnc2n1Cc1ccc(C)cc1	/	-4%[46.1 µM]	/	/	-13%	-3.8%	/	3%
O=C(CSC1=NCCS1)Nc1ccc(S(=O)(=O)N2CCCCCC2)cc1	-14%	-11%	9%	5%	?	-5.7%	?	-4%
CCOc1ccc(S(=O)(=O)N2CCCC(C(=O)NCc3ccco3)C2)cc1 (stereo not drawn)	9%	/	2%	2%	-5%	/	/	/
N#CCCN(Cc1cccnc1)C(=O)c1sc2cc(F)ccc2c1Cl	10%	-2%	8%	-19%	-24%	-4.9%	-30%	25%
COc1ccc(NC(=O)CN2CCN(S(=O)(=O)c3ccc(Cl)cc3)CC2)cc1	-20%	-33%[14.3 µM]	6%	-8%	-10%	5.2%	2%	4%
C=CCc1c(C)nc(SCc2nc3ccccc3c(=O)[nH]2)[nH]c1=O	22%	1%	13%	-5%	1%	1.4%	-3%	2%
CCO[C@@H]1OC(C(=O)NC2CC2)=C[C@H](c2ccccc2)[C@H]1CCCO	-3%	/	9%	0%	-2%	/	/	/
Cc1nc(N)ncc1-c1ccc2c(c1)OCO2	0%	-24%	13%	9%	34%[activator]	/	-13%	/
COc1ccc(NC(=O)c2cccc(NC(=O)c3ccco3)c2)c(OC)c1	-21%	4%	3%	-11%	-1%	-4.8%	-22%	-6%
O=C(O)c1ccc(Cl)c(S(=O)(=O)N(Cc2ccccc2)c2ccccc2)c1	0%	-3%	18%	-2%	27%	/	-2%	/
CCC(=O)Nc1ccccc1N1CCN(S(C)(=O)=O)CC1	9%	-7%	3%	3%	20%	0.7%	1%	-6%
Cc1nc2ccccn2c1C(=O)N/N=C/c1cc(C)n(-c2ccc(Br)cc2)c1C	18%	-17%	-18%	1%	?	-11%	?	?
CC(C)CC(c1nnnn1C(C)C)N1CCN(c2ccccc2)CC1 (stereo not drawn)	-11%	?	21%	15%	-16%	0.8%	-8%	-4%
Cc1ccc(CN(C(=O)COc2ccc(Cl)cc2)c2ccccn2)o1	/	24%[46.1 µM]	/	/	55%[activator]	-4.4%	10%[46.1 µM]	-9%
O=C(C1CCN(S(=O)(=O)N2CCOCC2)CC1)N1CCN(Cc2ccccc2)CC1	4%	-17%	15%	0%	-7%	4.0%	?	-7%
COc1ccc(Cc2nc3ccc(C(=O)NC4CCOC4)cc3o2)cc1 (stereo not drawn)	-10%	/	-4%	-2%	3%	/	/	/
COc1ccc([N+](=O)[O-])c(OC)c1C(=O)NC(=O)Nc1nc(C)cc(C)n1	0%	-5%	7%	1%	1%	/	7%	/
CSCCC(NC(=O)C1CCC(C)CC1)C(=O)O (stereo not drawn)	-6%	-7%	-12%	7%	-10%	4.7%	0%	-7%
O=C1/C(=C/c2cccnc2)SC(=S)N1Cc1ccco1	-2%	?	5%	/	-27%	-3.1%	-44%	-3%
CC(C)(C)C(=O)N1CCC(O)(CS(=O)(=O)Cc2ccc(Cl)cc2)CC1	10%	-13%	-8%[3.69 µM]	1%	8%	5.1%	-4%	-4%
CCOC(=O)c1c(N)c2cc([N+](=O)[O-])ccc2n1C	5%	/	-5%	0%	5%	/	/	/
Cc1cc(=O)n2nc(N3CCC(C(=O)NCc4ccccc4)CC3)sc2n1	5%	-1%&14%[46.1 µM]	-10%	4%	-8%&-7%	-10.0%	?	-14%
O=C(O)CCCN1C(=O)/C(=C/c2ccncc2)SC1=S	-3%	?	-21%	-2%	-25%	/	?	/
CCOC(=O)CSc1ncnc2c1c(-c1ccccc1)cn2-c1ccc(OC)cc1	11%	3%[46.1 µM]	-2%	13%	-10%&-19%	-6.0%&-5.7%	17%[46.1 µM]	-21%&6%
Cc1c(C(=O)Nc2ccc(C(F)(F)F)cc2)sc2ncn(CC(=O)N3CCN(c4ccccn4)CC3)c(=O)c12	6%	/	-10%	0%	?	/	/	/

Other compounds.
SMILES	NS1 function inh	LASV entry inh	RE007 growth inh	SARS PLpro yeast	2A StopGo	Cruzain inh Det	MARV entry inh	Cruzain inh noDet
COc1cc(CCC(=O)NCc2ccc3c(c2)CCN3C(=O)c2cccc(C)c2)cc(OC)c1OC	/	-20%[46.1 µM]	/	/	-5%	0.7%	/	3%
c1ccc2c(c1)NC1(CCCCCC1)n1c-2nc2ccccc21	-61%	-18%	-6%	-18%	50%[activator]	-3.3%	-7%	-15%
CC(C)(C)N(C=C(Cl)Cl)C(=O)NC1CCCCC1	-1%	?	8%	-20%	2%	2.9%	15%	-1%
CCOc1ccc(-c2c(C(=O)N/N=C(\C)c3ccccc3OC)nnn2-c2nonc2N)cc1	-5%	/	5%	0%	-3%	/	/	/
COc1ccc(C(=O)NCCCn2cccn2)cc1OC1CCN(C(C)=O)CC1	-3%	0%	8%	-3%	-13%	/	15%	/
Clc1nc2ccccc2cc1-c1nnn(-c2ccccc2)n1	-5%	/	6%	-1%	51%[activator]	/	/	/
CCOc1cc(/C=N/NC(=O)c2ccc(CSc3nncn3C)cc2)ccc1OCC(=O)N1CCOCC1	-1%	/	-7%	-1%	-16%	/	/	/
C=CCn1c(C)cc(C(=O)COC(=O)c2ccc(N)c([N+](=O)[O-])c2)c1C	3%	?	-1%	-21%	-28%	-4.4%	?	4%
Cn1cccc1-c1nc2ccc(NC(=O)c3ccccc3)cc2[nH]1	-38%	-10%	-8%	-10%	6%	-4.4%	-8%	-13%
CCOc1cc(/C=C2\C(=N)N3N=C(S(C)(=O)=O)SC3=NC2=O)ccc1OCCOc1cccc(OC)c1	6%	?	-18%	2%	?	/	-1%[46.1 µM]	/
CCN(c1cccc(C)c1)S(=O)(=O)c1cc2c3c(c1)CCN3C(=O)CC2	/	-29%[46.1 µM]	-2%	-1%	4%	/	?	/
C=C(C)CNC(=S)N/N=C/C1=CCC2CC1C2(C)C (stereo not drawn)	-1%	?	-4%	4%	-23%	-16%	?	0%
CC(=O)Nc1ccc(S(=O)(=O)NCc2nnnn2-c2ccc(F)cc2)cc1	/	?	5%	-1%	14%	/	7%	/
CCc1ccc(-c2cc(C)no2)cc1S(=O)(=O)N1CCN(c2ccccc2OC)CC1	12%	-4%[46.1 µM]	2%	-1%	-13%	/	?	/
Cc1cccc(OCC(=O)NCc2ccc(F)cc2)c1	2%	/	-3%	-4%	4%	/	/	/
Cc1sc2c(c1C)C(=O)NC(c1cccc(O)c1)N2 (stereo not drawn)	-20%	/	/	-4%	/	-2.9%	/	3%
Cc1cc(C)c(S(=O)(=O)NCCc2csc3nc(-c4ccc(Cl)cc4)nn23)c(C)c1	/	-1%[46.1 µM]	/	/	4%	-7.5%	/	?
CC1CCCN(C(=O)c2ccccc2OC2CCN(S(C)(=O)=O)CC2)C1 (stereo not drawn)	1%	20%	0%	1%	11%	/	6%[46.1 µM]	/
Cc1ccc(Cl)cc1NC(=O)Cn1cc2c(n1)CCCC2	-83%	/	5%	0%	3%	-3.6%	1%	0%
Cc1ccc(N=Cc2c(O)n(C)c(=O)n(C)c2=O)nc1	-3%	?	-21%	12%	/	-15%	0%	-11%
CCOC(=O)c1ccc(N2CCCCC2)c(NS(=O)(=O)c2ccc(C)cc2)c1	14%	?	54%	-2%	4%	/	7.9µM*	/
CC(C)Cn1c(N)c(C(=O)COC(=O)Cc2cccc(C(F)(F)F)c2)c(=O)n(C)c1=O	/	-3%	7%	-8%	-24%	/	3%	/
C=CCN(c1ccccc1)S(=O)(=O)c1cccc(C(=O)N2CCCC2)c1	/	-9%[46.1 µM]	-4%	-6%	20%	/	10%	/
CNC(=O)C1CC(=O)N(CCCc2ccccc2)C(=Nc2ccccc2)S1 (stereo not drawn)	3%	14%	6%[3.69 µM]	-12%	6%	1.7%	4%	?
C[C@]12CCC(OC(=O)CCC(=O)O)CC1=CCC1C2CC[C@]2(C)C(=O)CCC12 (stereo partly drawn)	2%	12%[46.1 µM]	2%	1%	-22%	/	-6%[46.1 µM]	/

The list continues:
SMILES	NS1 function inh	LASV entry inh	RE007 growth inh	SARS PLpro yeast	2A StopGo	Cruzain inh Det	MARV entry inh	Cruzain inh noDet
Cc1ccc(Cl)cc1-n1c(=O)cc(N2CCN(C(=O)c3ccco3)CC2)[nH]c1=O	3%	-3%	-20%	-36%	-10%	-0.4%	?	-6%
N#C/C(=C\c1ccc(F)cc1)C(=O)NCC1CCCO1 (stereo not drawn)	/	-9%[46.1 µM]	/	/	9%	-0.3%	/	6%
O=C(c1ccccc1-c1nc2ccccc2[nH]1)N1CCCCC1	-5%	-20%	0%	-2%	14%	3.5%	?	11%
C=CCC(NCc1ccco1)c1ccc(OC)c(OC)c1 (stereo not drawn)	8%	15%	-5%	-3%	-8%	4.8%	-4%	-3%
COc1ccc(-c2cc(C(=O)NCCc3ccc(OC)c(OC)c3)c3ccccc3n2)cc1	/	?	/	/	7%	-4.9%	/	?
CC(=O)c1ccc(Oc2nc(-c3cccnc3)nc3ccccc23)cc1	0%	-22%	3%	-3%	-12%	/	-1%[46.1 µM]	/
Cc1cccc(OCc2nc(C)cc(=O)[nH]2)c1	5%[9.22 µM]	1%	-26%	-7%	36%[activator]	1.1%	4%&4%	-15%
Cc1ccc(C(=O)Nc2nccc(-c3cccs3)n2)cc1	-32%	-1%	-6%	-6%	26%	-0.3%	19%	11%
CC1CCN(C(C(=O)Nc2ccc(C(C)C)cc2)c2ccc3c(c2)OCO3)CC1 (stereo not drawn)	-8%	/	10%	-24%	-17%	1.6%	/	-13%
COc1ccc(C[C@H]2CN3C(=NC[C@@H]3Cc3ccc(O)cc3)N2C[C@H](C)NC(=O)c2ccc(C)c(Br)c2)cc1	2%	/	2%	1%	-18%	/	/	/
Cc1ccc(-n2c(C)cc(/C=N/Nc3ccc([N+](=O)[O-])cn3)c2C)cc1	16%	-9%	-4%	-4%	9%	-5.7%	-8%	7.9µM*
CC(=O)C1=C(O)C(=O)N(c2ccc(O)cc2)C1c1cccc(F)c1 (stereo not drawn)	-1%	/	-1%	1%	2%	/	/	/

Assay outcomes from PubChem BioAssay.

An unsorted share of the library; any-hit rate near 4.6%.
